E coli growth – blocks Escherichia coli growth. OD600, 23 h; stronger effect = lower value. OD600 absorbance (no concentration beside the values). 330,000 compounds, 0.21% hits;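 active = OD600 absorbance below the run mean of sample wells minus 3.6 SD, in any replicate, cut at about 0.56 in these data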;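 also: stock transfer was 300 nL into about 60 µL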
UCH37 inh – blocks the human deubiquitinase UCH37; purified proteasome/UCH37, Ub-AMC cleavage fluorescence; inhibition, % (no concentration beside the values); Q9Y5K5; 330,000 compounds, 0.33% hits;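 active = mean of two replicates above 20%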;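 also: 0% = compound-free wells with enzyme and 100% = wells lacking proteasome; stock transfer was 100 nL into about 20 µL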
Target sequence (Q9Y5K5 whole entry, looked up): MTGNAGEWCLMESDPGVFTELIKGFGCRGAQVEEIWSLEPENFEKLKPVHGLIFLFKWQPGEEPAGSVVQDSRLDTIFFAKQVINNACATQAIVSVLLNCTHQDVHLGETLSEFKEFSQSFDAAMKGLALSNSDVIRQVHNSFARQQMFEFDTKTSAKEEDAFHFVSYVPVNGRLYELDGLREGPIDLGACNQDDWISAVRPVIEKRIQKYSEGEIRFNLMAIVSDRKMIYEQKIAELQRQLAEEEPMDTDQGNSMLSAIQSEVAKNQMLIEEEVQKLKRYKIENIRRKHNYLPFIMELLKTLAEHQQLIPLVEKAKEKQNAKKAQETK
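Test system – human UCH37 enzyme supplied as purified proteasome complex · Incubation – 30 min preincubation with enzyme, 25 min cleavage at room temperature · Detection – AMC fluorescence from Ub-AMC cleavage, excitation 355 nm, emission 460 nm · Benchmarks – no-proteasome wells (full inhibition) and compound-free wells (no inhibition)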
The depositor's hits bear a star. A portion of the library. The share of hits here may be higher or lower than overall.

| compound | E coli growth | UCH37 inh |
| --- | --- | --- |
| Cc1cccc(OCC(=O)NN=Cc2cc3c(cc2[N+](=O)[O-])OCO3)c1C | 0.71 | 7.2 |
| COc1cccc(C=NNc2ccc(S(=O)(=O)Nc3ccccc3C(=O)O)cc2[N+](=O)[O-])c1O | 0.61 | 10.0 |
| COc1ccccc1NC(=O)C(=O)NN=C(C)CC(=O)Nc1ccc(OCc2ccccc2)cc1 | 0.74 | -0.4 |
| COc1cc(C=NNC(N)=S)ccc1OCC(=O)Nc1ccc(C)c(C)c1 | 0.77 | -8.7 |
| COc1ccc2cc(C(C)=NNC(=O)c3cc(-c4cccnc4)nc4ccccc34)ccc2c1 | 0.71 | -16 |
| COC(=O)c1ccc(C=NNC(=S)NCCN2CCOCC2)cc1 | 0.65 | 8.7 |
| CC(CC(=O)Nc1ccccc1F)=NNC(=O)Cc1ccc(Cl)cc1 | 0.69 | 3.1 |
| Cc1ccc(C=NN2CCN(c3ccncc3S(=O)(=O)N3CCCCC3)CC2)cc1 | 0.79 | 4.8 |
| CC(=NNC(=S)Nc1cccc(C)c1)c1cc2ccccc2o1 | 0.72 | -0.8 |
| COc1ccc(C2C(C#N)=C(N=CN3CCN(C)CC3)OC3=C2C(=O)CC(C)(C)C3)cc1 (stereo not given) | 0.74 | 0.2 |
| Cc1cc(C=Nn2cnnc2)c(C)n1-c1cc(Cl)ccc1Cl | 0.71 | 1.7 |
| Cc1cc(C(=O)NN=C/C=C/c2ccccc2)c(C)o1 | 0.68 | 10 |
| CCOc1ccc(NC(=Nc2nc(C)cc(C)n2)NC(=O)CC)cc1 | 0.69 | 0.8 |
| COc1ccc(C=NN2CCOCC2)cc1COc1ccc(Cl)cc1 | 0.67 | 0.7 |
| COc1cc(C=NNc2nncn2N)ccc1OCc1c(C)no[n+]1[O-] | 0.68 | 9.4 |
| CC(=O)Nc1cccc(C(C)=NNC(=O)c2ccc(O)cc2)c1 | 0.68 | 1.7 |
| CC(=NNc1cccc(Cl)c1)c1ccncc1 | 0.61 | 5.4 |
| O=C(O)c1cccc2c1C(=NO)c1ccccc1-2 | 0.65 | 3.4 |
| Cn1ncc2c(ON=C(N)c3ccc(C(F)(F)F)cc3)ncnc21 | 0.6 | 0.8 |
| CC(=NNc1nc2ccccc2c(=O)n1O)c1ccco1 | 0.67 | 8.2 |

Single records (already shown).
`CCOc1ccc(NC(=Nc2nc(C)cc(C)n2)NC(=O)CC)cc1` as listed: E coli growth = 0.69; UCH37 inh = 0.8
`Cc1cc(C(=O)NN=C/C=C/c2ccccc2)c(C)o1` as listed: E coli growth = 0.68; UCH37 inh = 10

The list goes on:
| compound | E coli growth | UCH37 inh |
| --- | --- | --- |
| CCOc1ccc(C=NNC(=O)C2CC2)cc1OC | 0.7 | 4.4 |
| Cc1ccccc1C(=O)NN=C1SCC(=O)N1Cc1ccccc1 | 0.66 | 0.5 |
| C=CCNC(=S)NN=Cc1ccc(-c2ccc(Cl)cc2Cl)o1 | 0.69 | -94 |
| COc1ccc(NC(=O)CC(C)=NNC(=O)C(=O)Nc2cccc(Cl)c2C)c(OC)c1 | 0.68 | -1.0 |
| CC(=NNC(=O)CCC(=O)Nc1ccc(Br)cc1)c1ccc(Br)cc1 | 0.66 | 3.5 |
| COc1ccc(C(=O)NN=Cc2ccccc2C(=O)O)cc1OC | 0.66 | 3.0 |
| Cn1ccc(C(=O)NN=Cc2cccnc2)n1 | 0.71 | 1.7 |
| CCCCC(C(=O)NN=Cc1ccccn1)C(=O)NN=Cc1ccccn1 (stereo not given) | 0.68 | 4.3 |
| COc1cccc(C=NNC(N)=S)c1OCc1cccc(Cl)c1 | 0.68 | -1.6 |
| COc1ccc(CN2C(=O)c3ccccc3C(C=NOCc3ccc(Cl)cc3)C2=O)cc1 (stereo not given) | 0.77 | -42 |
| CN(C)c1ccc(C(=NO)c2ccccc2)cc1 | 0.68 | 1.8 |
| Cc1ccc(-c2ccc(C=NNC(=O)CN3CCOCC3)o2)cc1[N+](=O)[O-] | 0.67 | 20 |
| CCC(C)N=C1CC(C)(C)CC(=O)/C1=C(\O)Cc1ccccc1 (stereo not given) | 0.69 | 1.1 |
| CCOc1ccc(C2C(C(=O)Nc3ccccc3)=C(C)N=c3sc(=Cc4cccc(OCC(=O)O)c4)c(=O)n32)cc1 (stereo not given) | 0.72 | 3.5 |
| COc1ccccc1NC(=O)C(=NOCc1ccc(F)cc1)C(C)=O | 0.71 | 4.2 |
| CCOc1ccc(-c2c(C(=O)NN=Cc3ccc(Cl)cc3)nnn2-c2nonc2N)cc1 | 0.73 | 3.6 |
| CCOc1ccc(-c2c(C(=O)NN=Cc3ccc(C)s3)nnn2-c2nonc2N)cc1 | 0.65 | -5.0 |
| O=S(=O)(N=C(Nc1cc(N2CCOCC2)ncn1)c1ccccc1)c1ccccc1 | 0.72 | -12 |
| CC(=NNC(=O)COc1ccccc1-c1ccccc1)c1ccccn1 | 0.73 | -0.4 |
| O=C(Cc1ccccc1)NCC(=O)NN=Cc1cccs1 | 0.69 | 2.6 |
| O=C(NN=C/C=C\c1ccccc1[N+](=O)[O-])c1ccncc1 | 0.66 | 9.1 |
| COc1cc(C=NNC(=O)c2nc(-c3ccccc3)n(-c3ccccc3)n2)ccc1O | 0.66 | 4.4 |
| CC(=NNC(=O)c1nnn(-c2nonc2N)c1CN1CCc2ccccc21)c1ccccc1O | 0.74 | 2.4 |
| O=C(C[n+]1ccccc1)NN=Cc1cc(Br)ccc1O | 0.64 | 4.2 |
| CCCCN=C1CC(C)(C)CC(=O)/C1=C(\O)CCC | 0.66 | 5.8 |
| COc1cccc(C=NNC(=O)c2ccc(OCc3cccc(Br)c3)cc2)c1 | 0.65 | -1.3 |
| CCOC(=O)NN=C/C=C/c1ccccc1 | 0.67 | 2.3 |
| CCCC(=NNC(=O)CCC(=O)NCc1ccccc1)c1ccccc1 | 0.65 | 3.9 |
| COc1ccc(CC(=O)Nc2ccc(C(C)=NNC(=O)c3ccc(Br)o3)cc2)cc1 | 0.75 | -5.8 |
| Cc1ccc(C=NNS(=O)(=O)c2ccc([N+](=O)[O-])cc2)o1 | 0.71 | 9.3 |
| O=C(NN=Cc1ccccn1)c1ccc(NC(=O)c2ccccc2Cl)cc1 | 0.67 | 0.8 |
| O=C(NN=Cc1cc(Br)cs1)C(O)c1ccccc1 (stereo not given) | 0.64 | 2.5 |
| O=[N+]([O-])c1cccc(C=Nn2c(-c3cccnc3)n[nH]c2=S)c1 | 0.65 | 7.3 |
| O=[N+]([O-])c1ccc(O)c(C=NNc2nn[nH]n2)c1 | 0.65 | 7.1 |
| COc1cc(C=NNC(=O)c2cccc([N+](=O)[O-])c2)ccc1OCc1ccccc1 | 0.79 | 0.9 |
| Cc1ccccc1N(CC(=O)NN=Cc1cc(Br)c(C)o1)S(C)(=O)=O | 0.7 | 2.0 |
| COC(=O)Oc1ccc(C=NNC(=O)CSCc2ccc(Cl)cc2)cc1OC | 0.7 | -3.8 |
| Cc1cccc2c1OCCC2=NNC(=O)COc1ccccc1 | 0.75 | -2.1 |
| COc1ccc(C(=O)NN=Cc2cc3ccccc3[nH]c2=O)cc1 | 0.7 | -76 |
| CC(C)(C)c1ccc(C=NN2CCN(c3ccccn3)CC2)cc1 | 0.68 | 6.2 |
| CN(C)c1ccc(C=NNC(=O)CCC(=O)NCc2ccccc2)cc1 | 0.68 | -207 |
| Cc1cc(C)nc(N=C(N)N2CCCCC2)n1 | 0.71 | 6.0 |
| CCc1ccc[n+](-c2[nH]c(=O)sc2C=N/N=C(\[O-])c2cccnc2)c1 | 0.67 | 18 |
| O=C(Cc1c[nH]c2ccccc12)NN=Cc1ccc(F)cc1 | 0.6 | 0.5 |
| NC(=NOC(=O)c1ccc([N+](=O)[O-])cc1Cl)c1ccccn1 | 0.67 | 0.5 |
| CC(=O)NN=c1sc2ccccc2n1C | 0.71 | 2.0 |
| COCCCNC(=O)C(=O)NN=Cc1cc2c(cc1Br)OCO2 | 0.67 | 9.8 |
| Cc1nc(C)c(C(=O)NN=Cc2cc(Br)ccc2O)s1 | 0.63 | -7.3 |
| COC(=O)NN=Cc1cn(Cc2ccccc2F)c2ccccc12 | 0.68 | 1.4 |
| CCOc1cc(C=NNC(=O)c2ccccn2)ccc1OC(=O)c1ccc(F)cc1 | 0.72 | 0.2 |
| CC(C)c1cc(C(=O)NN=C/C=C/c2ccccc2)n[nH]1 | 0.68 | 9.0 |
| O=C(CN1CCN(Cc2ccccc2Cl)CC1)NN=C/C=C\c1ccccc1[N+](=O)[O-] | 0.68 | 5.3 |
| O=C(NN=Cc1ccccc1[N+](=O)[O-])c1ccc(COc2ccccc2-c2ccccc2)cc1 | 0.72 | 5.9 |
| O=C(CNC(=O)c1cccs1)NN=Cc1ccccc1[N+](=O)[O-] | 0.66 | 2.6 |
| COc1ccc(C(=O)NN=Cc2c(CO)cnc(C)c2O)cc1 | 0.62 | -413 |
| CC(CC(=O)Nc1cccc(Cl)c1Cl)=NNC(=O)c1ccccc1C | 0.66 | -1.3 |
| CC(Oc1ccc(C=NNC(=O)Cc2cccc3ccccc23)cc1)C(=O)O (stereo not given) | 0.67 | 3.3 |
| C#CCOc1ccc(C=NNC(=O)c2cccnc2)cc1OCC | 0.68 | 5.1 |
| CCCCNC(=S)N(C)N=Cc1ccc(OCC(=O)Nc2c(C)cc(C)cc2C)c(OC)c1 | 0.71 | 3.0 |
| CN(C)c1ccc(C=NNC(=O)c2ccc(Cn3cc(Br)cn3)o2)cc1 | 0.7 | -6.4 |

The list continues:
| compound | E coli growth | UCH37 inh |
| --- | --- | --- |
| Cc1ccc(C(=O)NN=Cc2ccc(-c3cccc(C(F)(F)F)c3)o2)cn1 | 0.66 | -66 |
| CCOc1ccccc1C=Nn1c(COc2ccccc2)n[nH]c1=S | 0.7 | 3.1 |
| N/C(=N\N=Cc1ccc(F)cc1)NN=Cc1ccc(F)cc1 | 0.42* | 5.7 |
| Cc1cc(=O)[nH]c(NN=Cc2cc(C)n(CC(F)(F)F)c2C)n1 | 0.65 | -0.9 |
| Cc1ccc(C=NNC(=O)C2CC(=O)N(c3ccccc3)C2)o1 (stereo not given) | 0.7 | 7.9 |
| COCCCn1c(=C(C#N)C(=O)Nc2ccc(C(=O)O)cc2)sc(=Cc2ccccc2OC(C)C)c1=O | 0.7 | -9.4 |
| Cc1cc(C(=O)NN=Cc2ccc([N+](=O)[O-])cc2)c2ccccc2n1 | 0.63 | 3.5 |
| Cc1nc2ccccc2c(=O)n1N=Cc1ccccn1 | 0.69 | 4.1 |
| COc1ccc(C=Nn2c(=O)[nH]c3c([nH]c4ccc(C)cc43)c2=O)cc1CN1CCOCC1 | 0.73 | 1.0 |
| O=C1N/C(=N/N=Cc2ccccc2)SC1(c1ccccc1)c1ccccc1 | 0.66 | 4.1 |
| O=C(Nc1ccccc1)ON=Cc1ccncc1 | 0.71 | 6.3 |
| Cc1cc(=O)[nH]c(N=C(N)Nc2ccc3c(c2)OCCO3)n1 | 0.7 | 0.0 |
| CC(=NO)C(C)(C)Nc1ccc(F)cc1 | 0.64 | 4.1 |
| NC(=NOC(=O)CCCc1ccccc1)c1cccc([N+](=O)[O-])c1 | 0.66 | 0.5 |
| COc1ccc(-n2c(C)cc(C=NNc3nnc(C)n3N)c2C)cc1 | 0.65 | 1.4 |
| O=C(Oc1ccc(C=NNc2ccccc2)cc1)c1ccccc1 | 0.64 | 2.2 |
| CC(=O)Nc1cccc(C(=O)NN=Cc2c[nH]c3ccccc23)c1 | 0.66 | 2.9 |
| O=C(NN=Cc1ccsc1)c1cc(O)cc(O)c1 | 0.74 | 6.5 |
| CCC(=NNC(C)=O)c1ccc(OC(F)F)cc1 | 0.65 | 1.2 |
| C=CCOc1c(Br)cc(C=NNc2ccc(C(=O)O)cc2)cc1OCC | 0.71 | -30 |
| S=c1[nH]nc(COc2ccccc2)n1N=Cc1cccc(Cl)c1Cl | 0.7 | 4.0 |
| O=C1CSC(=S)N1N=C/C=C/c1ccccc1 | 0.71 | 12 |
| Cc1ccc(C=NNC(=O)CNC(=O)COc2ccccc2)cc1 | 0.71 | 4.7 |
| COc1ccc(C=NN2CCN(Cc3ccccc3)CC2)cc1 | 0.72 | 2.9 |
| COc1ccc(O)c(C=Nn2c(-c3ccco3)csc2=Nc2cccnc2)c1 | 0.76 | 6.4 |
| ON=Cc1ccc2ccccc2c1 | 0.75 | -5.4 |
| Cc1cccc(C)c1OCC(=O)NN=Cc1cc2c(cc1[N+](=O)[O-])OCO2 | 0.71 | 2.7 |
| O=S(=O)(N=C(c1ccccc1)N1CCOCC1)c1cccs1 | 0.72 | 0.0 |
| O=C(NCC1CCCO1)C(=O)NN=Cc1ccc2c(c1)OCO2 (stereo not given) | 0.71 | 11 |
| O=C(CNC(=O)c1ccc(S(=O)(=O)N2CCCC2)cc1)NN=Cc1ccccc1 | 0.67 | 3.4 |
| N#Cc1ccc(C=NN=C(N)N)cc1 | 0.69 | 3.0 |
| CN(C)CCCCCNCCCNC(=O)C=NO | 0.63 | 0.4 |

5 compounds from above, sorted by the number in UCH37 inh, ascending:
| compound | E coli growth | UCH37 inh |
| --- | --- | --- |
| COc1ccc(CC(=O)Nc2ccc(C(C)=NNC(=O)c3ccc(Br)o3)cc2)cc1 | 0.75 | -5.8 |
| Cc1cc(=O)[nH]c(NN=Cc2cc(C)n(CC(F)(F)F)c2C)n1 | 0.65 | -0.9 |
| O=S(=O)(N=C(c1ccccc1)N1CCOCC1)c1cccs1 | 0.72 | 0.0 |
| COc1ccc(C=NN2CCOCC2)cc1COc1ccc(Cl)cc1 | 0.67 | 0.7 |
| CC(=NNC(=O)CCC(=O)Nc1ccc(Br)cc1)c1ccc(Br)cc1 | 0.66 | 3.5 |

Screening data (PubChem)
